Ba CapD inh = Bacillus anthracis CapD inhibitors, primary screen, biochemical, fluorescence intensity. CapD gamma-glutamyltranspeptidase (Bacillus anthracis Ames Ancestor). purified CapD enzyme, fluorescence intensity read-out; stronger effect = lower value; some hits fall short of the stated cut. z-score (concentration not given with the values). hit rate 0.23% among 140,000;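 active = z-score under -4 in either of two replicates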;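 note: stock transfer was 100 nL into about 40 µL; score is relative to mean and spread of the plate; one replicate is shown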
AID504770 = growth inhibition of E. coli YBA685, primary screen, V. cholerae RctB inhibitors; AID 504770, 2011; hit rate 0.27% among 130,000; E. coli YBA685 rctB-dependent plasmid, OD600 growth, 3 h; stronger effect = lower value; z-score (test concentration not listed);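 active = z-score under -2 on both plates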;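 note: wells of about 30 µL received 100 nL stock; score is relative to mean and SD of the test wells; the first replicate is given; strong numbers were not always called active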
* hit, by the source's call; nt = no result given.

SMILES	Ba CapD inh	AID504770
Cc1c(/C=N/n2cnnc2)[nH]n(-c2ccccc2)c1=O	-1.38	-0.95
O=C(CSCc1nc2scc(-c3cccs3)c2c(=O)[nH]1)Nc1nnc(C2CC2)s1	nt	0.9
CCC(C)(C)c1ccc(OCCCCNC(=O)c2ccc3ccccc3c2O)c(C(C)(C)CC)c1	1.5	nt
O=C(COc1ncnc2ccccc12)NC(c1ccccc1)c1ccccc1	-0.47	0.45
Cc1sc2ncnc(N(C)C)c2c1C	-0.605	0.4
Nc1cc(OC(=O)c2ccccc2)nn1S(=O)(=O)c1ccccc1	0.325	0.2
CC(C)(C)c1ccc(NC(=O)N2CCCN(c3ccc(C(F)(F)F)cn3)CC2)cc1	1.16	-0.5
CC(=O)Nc1nc(-c2ccc(Cl)cc2Cl)nc2c1c(=O)oc1ccccc12	7.24	nt
CC(C)c1nc2ccccn2c1NC1CCCCC1	nt	1.9
O=C1CC(c2ccccc2)CC2=C1C(c1ccc(F)c(Br)c1)Nc1ccccc1N2 (centres undefined)	-0.905	nt
N#Cc1nc2c(nc1C#N)-c1ccccc1C2=O	nt	-1.45
Cn1c(SCC(=O)NC2(C#N)CCCCC2)nc2sc3c(c2c1=O)CCCC3	nt	-0.9
Cc1ccccc1S(=O)(=O)Cc1ccc(C(=O)NCCN(C)C)o1	-0.19	0.85
COc1ccc(C2C(C#N)=C(N)SC3C(=O)N(c4ccc(Br)cc4)C(=O)C32)cc1 (centres undefined)	0.16	0.25
COc1ccc(C2(O)CN(c3cccc(C)c3)C3=[N+]2CCCS3)c(F)c1 (centres undefined)	0.01	nt
c1ccc2[nH]c(-c3nc4ccccc4o3)nc2c1	63.4	-0.45
O=CN1CCN(S(=O)(=O)c2ccc3c(c2)Cc2cc(S(=O)(=O)N4CCN(C=O)CC4)ccc2-3)CC1	0.22	nt
COc1ccc(C2C(C#N)=C(N)N(c3ccc(C)cc3)C3=C2C(=O)CC(C)(C)C3)cc1OC (centres undefined)	0.45	nt
CCOc1ccc(/C=C2\C(=O)NC(=S)N(c3ccc(Cl)cc3)C2=O)c(OCC)c1	0.49	nt
Cc1ccc(C2=NC3(CCN(C(=O)C4CCCC4)CC3)NC2=O)cc1C	-0.26	-0.95
CN(c1nc2ccccc2nc1NS(=O)(=O)c1cccs1)C1CCS(=O)(=O)C1 (centres undefined)	nt	2.8
O=C(O)c1ccccc1N1C(=O)c2cccc3c(Br)c([N+](=O)[O-])cc(c23)C1=O	-2	nt
Cn1c(=NC(=O)/C=C\c2ccccc2)sc2ccccc21	4.15	-1.15
CC1=C(C(=O)Nc2ccccc2)C(c2cccnc2)n2nnnc2N1 (centres undefined)	-0.5	nt
CCCCc1ccc(/C=N/NC(=O)c2ccc([N+](=O)[O-])cc2Cl)cc1	-0.755	nt
CC1CC(C)CN(C(=O)c2ccc(N3CC4CC(C3)c3cccc(=O)n3C4)c(NC(=O)c3ccc(F)cc3)c2)C1 (centres undefined)	-0.205	-0.8
Cc1ccc(NS(=O)(=O)c2ccc(NC(=O)CCC(=O)O)cc2)cc1C	nt	0.4
O=c1c(-c2ccc(Br)cc2)coc2cc(O)ccc12	0.795	0.45
CCn1cc(SCC(=O)NCc2ccc3c(c2)OCO3)c2ccccc21	nt	0.25
COc1ccc2c(c1)c(C(=O)n1ccnc1)c(C)n2C1CCCCC1	nt	-0.5
COc1ccc(-c2cc(C(F)(F)F)c(C#N)c(SCCCn3c(=O)[nH]c4ccccc43)n2)cc1	-0.07	-0.1
COc1ccc(-c2nc(-c3ccccc3)c(-c3ccc([N+](=O)[O-])cc3)[nH]2)cc1	-0.27	nt
O=C(CCN1CCCCC1)N1N=C(c2ccc(Cl)cc2)CC1c1ccco1 (centres undefined)	-0.155	-0.25
O=C(COc1ccc2c(c1)CCC2)N1CCC2(CC1)OCCO2	-0.08	-0.8
CC(=O)n1c2ccccc2c2nc(-c3ccncc3)sc21	17.9	1.4
CCC(=O)Nc1nnc(-c2cccc(OC)c2)o1	nt	0.75

Random excerpt: 5 records from the list
SMILES	Ba CapD inh	AID504770
O=C(CCN1CCCCC1)N1N=C(c2ccc(Cl)cc2)CC1c1ccco1 (centres undefined)	-0.155	-0.25
COc1ccc(-c2nc(-c3ccccc3)c(-c3ccc([N+](=O)[O-])cc3)[nH]2)cc1	-0.27	nt
COc1ccc2c(c1)c(C(=O)n1ccnc1)c(C)n2C1CCCCC1	nt	-0.5
CC1CC(C)CN(C(=O)c2ccc(N3CC4CC(C3)c3cccc(=O)n3C4)c(NC(=O)c3ccc(F)cc3)c2)C1 (centres undefined)	-0.205	-0.8
CCn1cc(SCC(=O)NCc2ccc3c(c2)OCO3)c2ccccc21	nt	0.25

(list continues)
SMILES	Ba CapD inh	AID504770
Cn1c(=O)c2c(nc(N3CCOCC3)n2CC(O)COc2ccc(Cl)cc2)n(C)c1=O (centres undefined)	-0.19	nt
CC(C)n1cc(-c2ccccn2)cn1	0.395	nt
COc1cc(C2C3=C(CC(C)(C)CC3=O)OC3=C2C(=O)CC(C)(C)C3)ccc1OCC(=O)O	-0.085	nt
Cc1c(C#N)c(NC(=O)c2ccc(Cl)cc2)n(CC2CC2)c1C	-0.56	-0.25
N#CC(=C1CCCCC1)c1nc(-c2ccc(Br)cc2)cs1	-0.345	nt
COc1ccc(C(CC(=O)NCc2cccs2)n2cccc2)cc1 (centres undefined)	0.76	-0.2
CC(Oc1ccc(C(=O)c2ccccc2)cc1)C(=O)NN (centres undefined)	nt	-0.4
Cn1c(=O)c([N+](=O)[O-])c(Cl)c2ccccc21	-0.415	nt
CCc1nc(C)ccc1O	nt	-1.05
Cc1[nH]c(=O)c(C#N)cc1-c1ccncc1	0.045	nt
COc1ccc(C2=[N+]([O-])C(C)(C)N(O)C2C)cc1 (centres undefined)	nt	1.4
O=C(NC1CCCCC1)N(Cc1nc2ccccc2c(=O)[nH]1)C1CCCC1	nt	0.25
Cc1csc(NC(=O)COCC(=O)O)c1-c1nc2ccccc2s1	-0.275	-0.05
Cc1onc(-c2c(F)cccc2Cl)c1C1=NCCO1	1.17	-0.5
COC(=O)N/N=C1\CC2CCC1(C)C2(C)C (centres undefined)	1.87	0.3
Cc1ccc(O)c(C(=O)c2coc(=N)c(C(=O)NC(C)C)c2)c1	nt	0.05
Cc1ccc(S(=O)(=O)NNC(=S)NCCc2ccccc2)cc1	0.645	nt
COC(=O)c1cnc2c(C(F)(F)F)cccc2c1OC	-0.435	1.85
O=C(CC12CC3CC(CC(C3)C1)C2)N1CCCC1	0.225	0.85
O=C1CCCC2=C1Sc1ccccc1N2	-2.79	-1.1
Cc1nonc1NC(=O)C(C)Oc1ccc(F)cc1 (centres undefined)	0.275	-0.35
COc1ccc(-c2nnc(SCC(=O)OC(C)C)o2)cc1	0.345	0.45
Cc1noc(C)c1COc1ccc(CC(=O)Nc2ccc3c(c2)OCO3)cc1	nt	-0.05
COc1ccc(CN2CN=C(Nc3nc4ccccc4o3)NC2)cc1	0.095	-0.55

Individual results from the list.
Reading for Cc1ccc(O)c(C(=O)c2coc(=N)c(C(=O)NC(C)C)c2)c1 under AID504770: 0.05
Reading for COc1ccc(CN2CN=C(Nc3nc4ccccc4o3)NC2)cc1 under AID504770: -0.55

Continuation.
SMILES	Ba CapD inh	AID504770
O=C1NC(=O)C(Cc2ccccc2)S1 (centres undefined)	-0.175	-1.1
CC(=O)N(C)c1ccc(NC(=O)/C=C/c2ccco2)cc1	-3.94	-0.05
CC(=O)C1=NN(c2ccc([N+](=O)[O-])cc2)C2(S1)SC(c1ccccc1)(c1ccccc1)c1ccccc12 (centres undefined)	-0.39	nt
O=C(CCCOc1ccccc1)OCc1cc(=O)oc2cc(O)ccc12	nt	-0.25
COCCn1c(SCc2csc(-c3cc(Br)ccc3OC)n2)nc2ccccc21	nt	-1.05
CC(CNS(=O)(=O)c1ccccc1)Sc1ncccn1 (centres undefined)	nt	-0.65
Oc1ccc2ccccc2c1C=Nc1cccn2cc(-c3ccccc3)nc12	-1.69	-0.35
Cn1c(N)nc(O)c1/C=C1/C=Nc2ccccc21	nt	1.55
COc1cc(/C=C2/C(=O)N(c3ccccc3)N=C2C)ccc1OCC(=O)Nc1ccc(Br)c(Cl)c1	-0.095	nt
N#Cc1ccc(-c2nc3ccccc3c(=O)[nH]2)cc1	0.12	0.2
O=C(c1ccc(Cl)nc1)N1CCC(Cc2ccccc2)CC1	0.39	-0.45
NC(=O)c1ccc(C(F)(F)F)n(Cc2ccc(C(F)(F)F)cc2)c1=O	0.6	nt
C=CCOc1ccccc1C(c1c(C)[nH]n(-c2ccccc2)c1=O)c1c(C)[nH]n(-c2ccccc2)c1=O	-0.22	nt
COc1cc(C(=O)Nc2cc(-c3nc4cc(C(C)C)ccc4o3)ccc2Cl)cc(OC)c1OC	-1.06	nt
COc1ccc(CC(N)=O)cc1OC	0.02	-0.65
COC(=O)C1=C(C)NC(=O)C12C(C#N)=C(N)Oc1ccccc12 (centres undefined)	nt	-0.9
CCSc1nnc(SCC(=O)c2cc(C)n(C)c2C)s1	nt	0.5
CC1(C)OC(=O)C(=C2SCCCS2)C(=O)O1	0.47	0.4
O=C(O)CC1(CC(=O)N2CCN(C3c4ccccc4-c4ccccc43)CC2)CCCC1	0.795	nt
Cc1ccc(-c2nc3sc(C)c(C)c3c(=O)o2)cc1	-0.12	nt
CN(C)c1ccc(-c2nc3ccccc3c(=O)[nH]2)c(Cl)c1	6.99	0
NC(=O)CSc1nc2ccccc2n1S(=O)(=O)c1ccccc1	nt	0.5
COc1cc(C(=O)OCC(=O)c2cc3c4c(c2)CC(=O)N4CCC3)ccc1OC(F)F	nt	1.45
O=C(Nc1nsc(-c2ccccc2)n1)c1ccc2ncsc2c1	-0.55	0.4
O=C(Nc1ccc(Oc2ccc(NC(=O)c3cnccn3)cc2)cc1)c1cnccn1	-0.015	-0.85
NC(=O)CSc1nnc2c(n1)CCCC2	nt	0
NC(=O)c1ccsc1NC(=O)c1cccs1	1.1	0.4
CCOc1cc(CC(=O)N[C@@H](CC(C)C)c2ccccc2N2CCCCC2)ccc1C(=O)O	2.06	nt
CCCNc1nc(OC(C(F)(F)F)C(F)(F)F)nc(N2CCNCC2)n1	-0.47	nt
COc1ccc2c(c1)NC(=O)CC(c1ccccc1)=N2	-1.98	-0.5
O=C(O)C(c1ccccc1)N1C(=O)/C(=C/c2ccncc2)SC1=S (centres undefined)	-0.52	0.9
COc1ccc(CNC(=O)c2cc(C(C)(C)C)oc2C)cc1OC	-0.285	1.75
COc1ccc2nc(SCC(=O)NN3C(=O)NC4(CCCCC4)C3=O)[nH]c2c1	nt	1.05
CC(=O)Nc1cc(-n2cnnn2)ccc1C	nt	-0.35
CC1CC(=S)Nc2ccccc2S1 (centres undefined)	-0.14	-0.15
COc1ccccc1N=C(NN)c1ccc2ccccc2n1	0.475	0.45
Cc1ccccc1OCCN1CCNC1=S	0.61	-0.2
CC(C)c1ccc(S(=O)(=O)C2C(=O)N(C)C3(C)CC2c2ccccc2O3)cc1 (centres undefined)	-0.245	-1.05
COC(=O)C(Cc1c[nH]c2ccccc12)NC(=O)CCC(=O)Nc1ccc(Br)cn1 (centres undefined)	-0.55	nt
O=C(CSc1nncn1-c1ccccc1)c1ccccc1	nt	0.15
CCCN(CCC)CC(=O)C12CC3CC(C1)CC(c1ccc(C)cc1)(C3)C2	0.235	nt
CC12CCC(C(C)(C)O)C(CC(=O)O1)C2 (centres undefined)	0.21	-0.3
Cc1ccc(C)n1-c1ccsc1-c1cc2nc(-c3ccccc3)cc(=O)n2[nH]1	37	nt
O=C(NCCCc1ccccc1)N1c2ccccc2Sc2ccccc21	-0.32	-0.6
CC(=O)N1CCOc2ccc(S(=O)(=O)NC3CCCCCC3)cc21	-0.43	0.75
CN1CCC(=NNC(=O)COc2ccc(Cl)cc2)CC1	0.2	-0.25
CCSc1nc2ccccc2n1CC(=O)O	-0.91	-0.6
CCS(=O)(=O)c1ccc2oc(SCC(=O)NC34CC5CC(CC(C5)C3)C4)nc2c1	nt	0.65
NC(=O)CSc1nnc(SCc2ccc(Cl)cc2)s1	0.355	-0.3
Cc1nc2ncccn2c1-c1csc(NCc2ccco2)n1	nt	-0.55
C/C(=N\NC(=O)c1ccc(N2CCCC2=O)cc1)c1ccccc1	nt	-0.5
Cc1nc2cc(-c3ccccc3)sc2c(=O)n1N	nt	1.85
O=C1c2ccccc2C(=O)N1CCCc1nc(-c2ccccc2)no1	-2.58	1.9
Oc1ccc(N2Cc3ccccc3C2)cc1	0.475	0.05
CC(NC(=O)CSc1nc2ccccc2c(=O)n1N)c1ccccc1 (centres undefined)	-0.635	-0.4
COc1ccc(C2CC(C(F)(F)F)n3ncc(C(=O)Nc4sc5c(c4C#N)CCC(C)C5)c3N2)cc1OC (centres undefined)	2.02	nt
Cc1ccc(C(=O)c2sc3nc4c(c(-c5ccco5)c3c2N)CCC4)cc1	-1.56	nt
Cc1cn(-c2nc(-c3ccccc3)oc2-c2ccccc2)c(=O)nc1NCCO	9	nt
O=C(CN1c2ccccc2S(=O)(=O)c2ccccc21)N1CCCCC1	1.09	0.2
N#Cc1ccc(NCC(=O)Nc2ccc(N3CCOCC3)cc2)cc1	nt	-0.35
CCOC(=O)c1ccc2ncc3c(-c4ccccc4)nn(-c4ccccc4)c3c2c1	-0.02	2.15
C=CCOc1ccc(/C=C2\Oc3ccc(C(=O)OC)cc3C2=O)cc1	0.24	-0.6

An excerpt of these results, with bars between the fields:
mol | Ba CapD inh | AID504770
Cc1ccc(C(=O)c2sc3nc4c(c(-c5ccco5)c3c2N)CCC4)cc1 | -1.56 | nt
Cc1cn(-c2nc(-c3ccccc3)oc2-c2ccccc2)c(=O)nc1NCCO | 9 | nt
O=C(CN1c2ccccc2S(=O)(=O)c2ccccc21)N1CCCCC1 | 1.09 | 0.2
N#Cc1ccc(NCC(=O)Nc2ccc(N3CCOCC3)cc2)cc1 | nt | -0.35
CCOC(=O)c1ccc2ncc3c(-c4ccccc4)nn(-c4ccccc4)c3c2c1 | -0.02 | 2.15

Screening results from PubChem BioAssay.
